High-throughput results: PubChem BioAssay, National Center for Advancing Translational Sciences (NCATS)
Menin-MLL FL inh: qHTS Assay for Inhibitors Targeting the Menin-MLL Interaction in MLL Related Leukemias: Competition With Fluorescein Labeled MLL-derived Peptide; Fluorescence polarization, fluorescein-MLL peptide displacement from menin; FP activity change, % at 61.4 µM; 290,000 tested, under 10 active; inconclusive = falling polarisation curve, or a change in total fluorescence; inactive = total fluorescence flat and polarisation flat or rising; no compound was filed as active; the % refers to the polarisation; negative = inhibition;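 also: % of control where 0% means no effect; inhibitors lower the polarisation; unlabelled MLL peptide was the positive control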
ClpP mod: qHTS Assay for Activators of ClpP; purified B. subtilis ClpP, FRET peptide cleavage, 20 min; Potency, µM (top dose mostly 57.5 µM), without a hit: at the highest dose activity change, negative = active; hit rate 1.9% among 340,000; AID 651965, 2013; active = well fitted falling curve with a large enough effect; inconclusive = small, poorly fitted or top-dose-only effect; inactive = no such curve, though single readings can be large or run the other way; also: potency is read from the fitted curve at half-maximal effect; the source files actives as falling curves though it sought activators and does not explain the sign; nearly all actives have a fitted effect of over 65% in size; many hits overshoot -100%
Target sequence (P80244 whole entry, looked up): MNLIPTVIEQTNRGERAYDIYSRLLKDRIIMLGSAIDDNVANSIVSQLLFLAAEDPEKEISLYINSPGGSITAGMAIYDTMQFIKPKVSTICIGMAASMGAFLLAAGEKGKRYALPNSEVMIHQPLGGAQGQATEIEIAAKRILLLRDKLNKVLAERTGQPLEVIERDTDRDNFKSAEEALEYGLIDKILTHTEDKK
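Purified B. subtilis ClpP, 10 microg/mL final in Tris/HCl pH8 with KCl, BSA, glycerol and Tween-20, cleaved an Abz/nitrotyrosine-quenched decapeptide. Fluorescence (ex 320, em 430) was read at 0 and 20 min at room temperature. Delta was normalized to 5.8 microM ADEP and DMSO/no-enzyme controls.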
Sfp PPTase inh: qHTS Assay for Inhibitors of Bacillus subtilis Sfp phosphopantetheinyl transferase (PPTase); hit rate 3.5% among 310,000; AID 1490, 2009; Potency, µM, for the others: max response, negative = inhibition, actives largely listed as inhibitors; 4'-phosphopantetheinyl transferase ffp (Bacillus subtilis), Q9F4F7; Biochemical Sfp PPTase activity, qHTS; active = well fitted inhibition curve with a large enough effect; inconclusive = small, poorly fitted or top-dose-only effect, or another doubt; inactive = no such curve, though single readings can be large or run the other way;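 also: the enzyme is Sfp with the accession as filed and its product quenches rhodamine fluorescence; potency is read from the fitted curve at half-maximal effect; 0% = enzyme reaction without inhibitor and -100% = no enzyme wells; top concentration of the series not given in the record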
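With Hepes-Na pH 7.6 buffer containing 10 mM MgCl2, Sfp (15 nM) modified BHQ-2-YbbR (12.5 uM) using rhodamine-CoA (5 uM). Two reads 30 minutes apart at 525/598 nm yielded each well's rate.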
TRPML1 inh: qHTS for Inhibitors of the Human Mucolipin Transient Receptor Potential 1 (TRPML1) | Mucolipin-1 (Homo sapiens), Q9GZU1 | TRPML1-inducible cells, Ca2+ dye fluorescence, FDSS; active compounds read low; inhibition of EC80 agonist-evoked calcium signal | activity change, negative = inhibition, % (no concentration beside the values) | hit rate 0.02% among 390,000 | AID 624415, 2012; in the data active means activity change below about -50%; inconclusive means about -30% to -50%; inactive means above about -30%;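 also: stimulus is agonist 54-4 at its EC80 concentration; % is scaled to controls: 0 for no effect and ±100 for the full control effect; compound concentration not given in the record; the text of the record puts the active cut at -80%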
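Calcium fluorescence in TRPML1-DL cells induced overnight with Tet: a 110 s read after compound pin addition, then a 110 s antagonist read after challenge with 54-4 at 4 uM final (EC80).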
gsp ag: qHTS for Agonist of gsp, the Etiologic Mutation Responsible for Fibrous Dysplasia/McCune-Albright Syndrome: qHTS | gsp mutant cells, cAMP HTRF, 30 min; control for the full effect not named in the record | Potency, µM (titrated, usually from 76.9 µM), for the others: at the highest dose activation (cAMP increase), usual class: activators | hit rate 0.13% among 340,000 | AID 624287, 2012; active = well fitted activation curve with a large enough effect; inconclusive = small, poorly fitted or top-dose-only effect, or another doubt; inactive = no such curve, though single readings can be large or run the other way; cell line not stated here;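 also: phosphodiesterase inhibitor Ro 20-1724 added with compounds to block cAMP breakdown; potency is read from the fitted curve at half-maximal effect; nearly all actives have a fitted effect of over 60% in size; about a fifth of the inactives were tested at one dose only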
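Cells in DMEM/10% FBS with G418 were pretreated with compounds in DMSO plus […] (300 uM stock) for 30 min at 37C. cAMP was measured by HTRF (cAMP-d2 plus anti-cAMP antibody-K) after 30 min at room temperature.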
gsp antag: qHTS for Antagonists of gsp, the Etiologic Mutation Responsible for Fibrous Dysplasia/McCune-Albright Syndrome: qHTS. gsp-mutant cells, cAMP HTRF, 30 min; control for the full effect not named in the record. Potency, µM (top dose mostly 76.9 µM), for inactives: top-dose activity change, negative = inhibition, usual class: inhibitors. hit rate 0.4% among 340,000; active = falling curve of any shape with a large fitted effect; inconclusive = falling curve, mostly with a smaller effect; inactive = flat or rising curve; cell line not stated here;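 also: intracellular cAMP measured with PDE inhibitor Ro 20-1724 present during compound exposure; potency is read from the fitted curve at half-maximal effect; % is scaled to controls: 0 for no effect and ±100 for the full control effect; nearly all actives have a fitted effect of over 65% in size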
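Cells in G418 medium, seeded 16-24 h, 37C; buffer exchange to DPBS + 1 mM CaCl2, 0.5 mM MgCl2, 0.05% BSA; cpds in DMSO + […] (300 uM stock), 30 min 37C; HTRF cAMP detection.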
TRPV1 potentiator: HTS Assay for Compounds that Act as Potentiators of the Vanilloid Receptor 1; Transient receptor potential cation channel subfamily V member 1 (Homo sapiens), Q8NER1; TRPV1-expressing cells, Fluo-8 calcium influx, capsaicin EC20 potentiation; host cell line not named in the record; control for the full effect not named in the record; potentiation, % at 8.33 µM; hit rate 0.02% among 320,000; active means potentiation above 80%; inconclusive means 30% to 80%; inactive means below 30%; also: 0% is about no effect
Target sequence (Q8NER1 whole entry, looked up): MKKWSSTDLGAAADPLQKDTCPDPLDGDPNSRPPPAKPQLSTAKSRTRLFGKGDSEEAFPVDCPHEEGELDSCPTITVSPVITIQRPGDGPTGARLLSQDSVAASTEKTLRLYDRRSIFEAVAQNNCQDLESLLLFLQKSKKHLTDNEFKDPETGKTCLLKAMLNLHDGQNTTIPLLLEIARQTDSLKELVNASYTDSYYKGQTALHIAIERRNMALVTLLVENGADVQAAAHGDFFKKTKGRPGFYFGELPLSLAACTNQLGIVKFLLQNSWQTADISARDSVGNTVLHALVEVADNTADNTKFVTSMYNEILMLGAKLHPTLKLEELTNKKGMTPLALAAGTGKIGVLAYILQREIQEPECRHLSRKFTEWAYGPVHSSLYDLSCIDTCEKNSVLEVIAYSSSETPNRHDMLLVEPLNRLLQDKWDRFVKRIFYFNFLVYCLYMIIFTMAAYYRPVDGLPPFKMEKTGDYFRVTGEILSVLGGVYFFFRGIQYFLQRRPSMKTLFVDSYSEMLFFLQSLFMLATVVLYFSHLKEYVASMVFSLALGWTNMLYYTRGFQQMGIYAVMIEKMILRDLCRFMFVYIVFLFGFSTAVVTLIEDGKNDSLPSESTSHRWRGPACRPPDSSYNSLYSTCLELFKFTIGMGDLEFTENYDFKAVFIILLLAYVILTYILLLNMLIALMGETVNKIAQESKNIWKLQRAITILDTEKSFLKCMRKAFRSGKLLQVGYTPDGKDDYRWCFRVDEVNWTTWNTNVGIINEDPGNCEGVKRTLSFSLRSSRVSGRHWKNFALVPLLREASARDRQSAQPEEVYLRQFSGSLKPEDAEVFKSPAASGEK
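Fluo-8 calcium influx in TRPV1-expressing cells, kinetic read (ex 480/em 520 nm). Compound added and read 3 min for agonist activity, followed by capsaicin at EC20 final and 2 min further read for enhancement.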
* marks the source's active call; other numbers are inactive results; [ ] = dose if it differs, or a comment. Random draw from the library; overall some 4.9% were active at least once.

O=C(NC1CC1)C1=C[C@@H](c2c[nH]c3ccccc23)C[C@@H](OCCCCO)O1 was read as Menin-MLL FL inh 7.3, ClpP mod -9.6%, Sfp PPTase inh 19%, TRPML1 inh -3, gsp antag 4% and TRPV1 potentiator 21.
Cc1ccc(-c2csc(NC3OC(=O)c4ccccc43)n2)cc1 (centres undefined) was read as Menin-MLL FL inh 0.6, ClpP mod -1.9%, Sfp PPTase inh 7%, TRPML1 inh 10, gsp ag 17%, gsp antag -20% and TRPV1 potentiator -3.
COC(=O)C1=C(C)N(CCc2cc(OC)c(OC)c(OC)c2)C(=O)N[C@H]1c1ccccc1 was read as Menin-MLL FL inh 5.5[11.7 µM], ClpP mod -1.9%, Sfp PPTase inh 6%, TRPML1 inh -1 and gsp antag 6%.
C/C(=N\NC(=O)c1ccc(CN(C)S(=O)(=O)c2ccc(C)cc2)cc1)c1ccc(OC(F)F)cc1 was read as Menin-MLL FL inh 0.6, ClpP mod -1.7%, Sfp PPTase inh 19%, TRPML1 inh -6, gsp ag -141%[inhibitor], gsp antag 10% and TRPV1 potentiator -6.
For C/C(=N/NC(=S)Nc1ccccc1)c1ccc2c(c1)OCO2 the results were Menin-MLL FL inh 2.3, ClpP mod 0.6%, Sfp PPTase inh 6%, TRPML1 inh 29, gsp ag 8%[15.4 µM], gsp antag -6% and TRPV1 potentiator 0.
`Cc1cccc2cc3c(NC(=O)c4ccccn4)nn(C)c3nc12` gave Menin-MLL FL inh 1.4, ClpP mod -15%, Sfp PPTase inh -12%, TRPML1 inh 3, gsp ag inconclusive, gsp antag -3% and TRPV1 potentiator -4.
Screening O=C(CN1CCN(C(=O)CNC(=O)c2ccc3c(c2)OCO3)CC1)Nc1ccccc1Cl returned ClpP mod -1.9%, TRPML1 inh -9, gsp ag 6%, gsp antag -2% and TRPV1 potentiator -21.
`COC(=O)c1sc(NC(=S)NC(=O)c2ccccc2C)nc1C` gave Menin-MLL FL inh -0.1, Sfp PPTase inh 0%, TRPML1 inh -10, gsp ag 10%[15.4 µM] and TRPV1 potentiator -11.
Screening CN(C)S(=O)(=O)c1cccc(NC(=O)c2n[nH]c(=O)c3ccccc23)c1 returned Menin-MLL FL inh -4.3, Sfp PPTase inh 1%, TRPML1 inh 26, gsp ag inconclusive, gsp antag 6% and TRPV1 potentiator 2.
O=C(COc1ccccc1)Nc1ccc2[nH]ncc2c1 was read as Menin-MLL FL inh 6.4, ClpP mod -3.3%, Sfp PPTase inh 22%, gsp ag 21%, gsp antag 5% and TRPV1 potentiator -26.
Cc1ccc(NC(=O)COc2ccc(C(=O)NCCc3ccccc3)cc2)cc1 was read as ClpP mod -3.9%, TRPML1 inh 2, gsp ag -13% and gsp antag 3%.
CCOC(=O)CNCCC(=O)c1ccc(Br)cc1 was read as Menin-MLL FL inh 1.6, ClpP mod -1.4%, Sfp PPTase inh -13%, TRPML1 inh -6, gsp ag -6%[15.4 µM], gsp antag -11% and TRPV1 potentiator 2.
O=C(COC(=O)c1ccc([N+](=O)[O-])s1)c1ccc[nH]1 was read as ClpP mod -2.0%, TRPML1 inh -24, gsp ag 15% and gsp antag -1%.
For CCOC(=O)c1cnc2ccc(OCC)cc2c1N1CCN(C)CC1 the results were ClpP mod -1.4%, Sfp PPTase inh -10%, TRPML1 inh -20, gsp ag inconclusive, gsp antag 18% and TRPV1 potentiator 2.
Cc1ccc(C(=O)COC(=O)[C@@H](NC(=O)c2ccco2)C(C)C)s1 was read as ClpP mod -4.7%, TRPML1 inh -5, gsp ag -4%[15.4 µM] and gsp antag -6%.
For CC1CCN(C(=S)c2cccc(O)c2)CC1 the results were Menin-MLL FL inh -0.4, ClpP mod 1.1%, Sfp PPTase inh 25µM*, TRPML1 inh -11, gsp ag 15%, gsp antag 9% and TRPV1 potentiator -2.
O=C(COC(=O)C1(c2ccccc2F)CCCC1)N1CCNC1=O was read as TRPML1 inh 9, gsp ag -1%[15.4 µM], gsp antag 15% and TRPV1 potentiator 3.
Screening CN(CC(=O)Nc1ccccc1Cl)C(=O)c1ccc(COc2ccccc2)cc1 returned ClpP mod 2.0%, TRPML1 inh -5, gsp ag -44%[inhibitor], gsp antag -13% and TRPV1 potentiator -5.
For O=C(O)CC1NC(=S)N(c2ccccc2)C1=O (centres undefined) the results were Menin-MLL FL inh -0.2, ClpP mod -1.6%, Sfp PPTase inh -8%, TRPML1 inh -6, gsp ag -2%, gsp antag 3% and TRPV1 potentiator -1.
For O=C(c1ccc(S(=O)(=O)N2CCCC2)cc1)N1CCN(c2cccc(Cl)c2)CC1 the results were Menin-MLL FL inh -0.5, ClpP mod 0.3%, Sfp PPTase inh 0%, TRPML1 inh 26, gsp ag 16%, gsp antag -5% and TRPV1 potentiator 6.
`COc1ccc(S(=O)(=O)N2CCCC2CNC(=O)C(=O)NCc2ccc(C)cc2)cc1` (centres undefined) gave TRPML1 inh 5, gsp ag -3%[15.4 µM], gsp antag 0% and TRPV1 potentiator 7.
COc1ccc(-c2noc(N3CCC(C(=O)Nc4cccc(OC)c4)CC3)n2)cc1 was read as Menin-MLL FL inh -2.6, ClpP mod 0.0%, Sfp PPTase inh 12%, TRPML1 inh -10, gsp ag inconclusive, gsp antag inconclusive and TRPV1 potentiator -11.
CCn1c(SCC(=O)NCCOC)nc2sc(C)c(C)c2c1=O was read as Menin-MLL FL inh 3.4, Sfp PPTase inh 45µM* and TRPV1 potentiator 3.
For Cc1ccccc1-c1nc(CS(=O)(=O)CC(=O)N2CCOCC2)c(C)o1 the results were Menin-MLL FL inh -2.6, ClpP mod 0.5%, Sfp PPTase inh 12%, TRPML1 inh -14, gsp ag inconclusive, gsp antag 9% and TRPV1 potentiator 7.
For Cc1cccc(NC(=O)CCC(=O)N/N=C/c2ccc(O)cc2O)c1 the results were Menin-MLL FL inh 4.0, Sfp PPTase inh 10%, TRPML1 inh -14, gsp ag 14%, gsp antag 1% and TRPV1 potentiator 6.
COc1ccc(-c2ccc3c(n2)sc2c(=O)[nH]c(=O)[nH]c23)cc1OC was read as Menin-MLL FL inh 1.7, Sfp PPTase inh -16% and TRPV1 potentiator 1.
Screening O=C(NCCc1ccccc1)c1cc(-c2ccc3c(c2)OCO3)on1 returned Menin-MLL FL inh 0.0, ClpP mod -16%, Sfp PPTase inh 4%, TRPML1 inh -7, gsp ag 10%, gsp antag 11% and TRPV1 potentiator 2.
COc1cc(/C=C2/C(=N)N3N=C(CC(=O)N4CCOCC4)SC3=NC2=O)ccc1OCc1ccc(F)cc1 was read as ClpP mod -7.5%, Sfp PPTase inh 8%, TRPML1 inh 7, gsp ag inconclusive, gsp antag -9% and TRPV1 potentiator inconclusive.
CCn1c(SC2CCOC2=O)nnc1-c1ccc(Cl)cc1 (centres undefined) was read as Menin-MLL FL inh -5.5, ClpP mod 0.2%, Sfp PPTase inh 26%, TRPML1 inh 3, gsp ag inconclusive, gsp antag -2% and TRPV1 potentiator 12.
`O=C(c1cccs1)N1CC=C(c2ccccc2)CC1` gave ClpP mod -0.9%, TRPML1 inh -5, gsp ag 4%, gsp antag 1% and TRPV1 potentiator -7.
Screening CC(C)(C)C(=O)NC(=S)Nc1ccccc1N1CCCC1 returned Menin-MLL FL inh -1.1, ClpP mod 6.0%, Sfp PPTase inh 1%, TRPML1 inh 1, gsp ag -29%, gsp antag 2% and TRPV1 potentiator 5.
For COc1ccc(NC(=O)c2ccc3nc(-c4ccccc4)c(-c4ccccc4)nc3c2)c(OC)c1 the results were Menin-MLL FL inh 13, ClpP mod -3.2%, Sfp PPTase inh 17%, TRPML1 inh 10, gsp ag inconclusive, gsp antag 11% and TRPV1 potentiator 14.
`O=C1CNC(=S)N1Cc1ccccc1Cl` gave Menin-MLL FL inh 16, ClpP mod 1.3%, Sfp PPTase inh 8%, TRPML1 inh -2, gsp ag -8%, gsp antag 9% and TRPV1 potentiator -2.
For C[C@H]1CN([C@@H](C)CO)C(=O)CCCn2cc(nn2)CO[C@@H]1CN(C)S(=O)(=O)c1ccc(-n2cccn2)cc1 the results were ClpP mod -1.4%, TRPML1 inh 13 and gsp ag 12%.
`COc1ccc(CC(=O)NNC(=S)NC(=O)c2cc(OC)c(OC)c(OC)c2)cc1` gave ClpP mod -3.9%, TRPML1 inh 21 and gsp ag -1%.
`O=C1CSC(c2cccc([N+](=O)[O-])c2)N1c1ccccc1F` (centres undefined) gave Menin-MLL FL inh 3.3, ClpP mod -14%, Sfp PPTase inh 11%, TRPML1 inh 4, gsp ag -12%[15.4 µM], gsp antag 9% and TRPV1 potentiator 3.
Screening CCSc1nnc(NC(=O)CSc2nnc(CNC(=O)c3cc(OC)c(OC)c(OC)c3)o2)s1 returned Menin-MLL FL inh 0.3, ClpP mod 1.7%, Sfp PPTase inh -12%, TRPML1 inh 1, gsp ag -2%, gsp antag 11% and TRPV1 potentiator 6.
`O=C(CCCc1ccccc1)NCc1cccnc1` gave Menin-MLL FL inh -1.7, ClpP mod 1.2%, Sfp PPTase inh 13%, TRPML1 inh -14, gsp ag -36%[inhibitor], gsp antag 10% and TRPV1 potentiator -4.
Cc1ccc2c(CN3CCN(S(=O)(=O)c4ccc5c(c4)OCCO5)CC3)cc(=O)oc2c1C was read as Menin-MLL FL inh 5.0, ClpP mod 0.1%, Sfp PPTase inh 7%, TRPML1 inh 1, gsp ag -3%, gsp antag -21% and TRPV1 potentiator 3.
For Cc1cc(C)n2c(=O)c3ccc(Cl)cc3nc2c1C#N the results were Menin-MLL FL inh inconclusive, Sfp PPTase inh -8%, TRPML1 inh 1, gsp ag -14%[15.4 µM] and TRPV1 potentiator -11.
